OX1R antag-1 – human HCRTR1 antagonism; O43613; CHO/OX1R cells, Fluo-8 calcium fluorescence, orexin A; inhibition, % at 5 µM; actives 0.43% (n = 330,000); AID 434989;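 active = inhibition above its plate's threshold, mean inhibition of all tested compounds on the plate plus 3 SD, cut at about 37% in these data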;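 also: 0% = orexin A challenge wells and 100% = SB-334867-A antagonist wells; not every result past the cut was called active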
Target sequence (O43613 whole entry, looked up): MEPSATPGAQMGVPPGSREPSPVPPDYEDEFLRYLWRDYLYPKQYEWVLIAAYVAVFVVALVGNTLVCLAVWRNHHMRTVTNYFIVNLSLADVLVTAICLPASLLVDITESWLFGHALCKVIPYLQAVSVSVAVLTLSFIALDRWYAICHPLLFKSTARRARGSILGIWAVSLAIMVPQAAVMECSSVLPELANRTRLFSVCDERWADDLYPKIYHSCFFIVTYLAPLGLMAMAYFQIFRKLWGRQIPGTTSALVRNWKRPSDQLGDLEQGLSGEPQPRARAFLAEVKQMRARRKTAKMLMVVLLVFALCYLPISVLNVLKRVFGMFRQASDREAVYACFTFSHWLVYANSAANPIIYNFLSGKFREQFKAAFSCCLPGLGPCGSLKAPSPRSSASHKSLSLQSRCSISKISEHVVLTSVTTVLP
OX1R antag-2 – blocks the human orexin 1 receptor; OX1R-expressing cells, FRET antagonist read-out; inhibition, % at 6.6 µM; actives 1.8% (n = 330,000); AID 485270; in the data active = inhibition mostly above about 38%, no sharp cut-off; inactive = mostly below about 40%;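 also: 0% = agonist challenge alone and 100% = reference antagonist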
The depositor's hits bear a star. An excerpt, and most or all hits are left out here.

1: Cc1cc(NN)nc(NS(=O)(=O)c2ccc(Cl)cc2)n1
2: CC(NC(=O)C(=S)N1CCN(C)CC1)c1ccccc1 (stereo not given)
3: Cc1cc(C(=O)Cn2nnc(-c3ccc(Cl)cc3)n2)c(C)n1-c1ccccc1
4: CC(=O)Nc1ccc(NC(=O)N(c2ccccc2)c2ccccc2)cc1
5: O=C(CN1CCN(c2ccccc2)CC1)Nc1ccccc1C(F)(F)F
6: C/C(=N\NC(=O)c1cccs1)c1ccncc1
7: Cc1c(C(=O)C(=O)NCCc2ccc(S(N)(=O)=O)cc2)c2ccccc2n1C
8: CCN1C(=O)c2cccc3c(S(=O)(=O)Nc4ccccc4)ccc1c23
9: CCC(CC)NC(=O)CO/N=C/c1ccc(Cl)cc1Cl
10: COCCNC(=O)COc1ccccc1Cl
entry no.,1,2,3,4,5,6,7,8,9,10
OX1R antag-1,-24,2,8,-8,-20,0,3,-23,-10,3
OX1R antag-2,18,12,12,-4,3,-1,19,13,8,14

11: CC(C)c1ccccc1NS(C)(=O)=O
12: COc1ccc(C)cc1-n1nnnc1SCc1cn2ccsc2n1
13: COc1ccc(C)cc1Cn1nnc2ccccc21
14: CCOC(=O)c1c(N2C(=O)Nc3ccccc3N2O)n[nH]c1-c1cccc(Cl)c1
15: COCCN(C(=O)COC(=O)c1cc(C)n(-c2ccccc2)c1C)c1c(N)n(Cc2ccccc2)c(=O)[nH]c1=O
16: CCN1C(=O)c2cccc3c(N)ccc1c23
17: C=CCN(CC=C)C(=O)C1CC(=O)N(c2ccc(Br)cc2)C1 (stereo not given)
18: CC1CCCCN1CCNC(=O)c1ccc2c(c1)N(Cc1ccccc1)C(=O)c1ccccc1S2(=O)=O (stereo not given)
19: CC(/C=N/NC(=O)CSc1nc2ccccc2n1C)=C\c1ccco1
20: CCCSc1nnc(-c2ccccc2NC(=O)CC)c(=O)[nH]1
entry no.,11,12,13,14,15,16,17,18,19,20
OX1R antag-1,-12,-26,-10,-18,-18,-10,-21,-14,-26,-20
OX1R antag-2,14,9,20,23,16,34,8,8,5,18

A few values from the results shown:
entry 13 – OX1R antag-2: 20
entry 17 – OX1R antag-2: 8
entry 11 – OX1R antag-1: -12
entry 16 – OX1R antag-2: 34

Further records follow.
21: COc1ccc2cc(OCC(=O)NNC(=O)Nc3ccc(OC)c(OC)c3)ccc2c1
22: COc1ccc(-c2cn3cccnc3n2)cc1NC(=O)c1ccc(Br)o1
23: O=C1C=C(Nc2ccc(Cl)cc2)CC(c2ccc(Cl)cc2)C1 (stereo not given)
24: CCOC(=O)C1CCN(C(=O)c2ccco2)CC1
25: O=C(Oc1ccc2c(c1)OCO2)c1cccs1
26: CC(C)c1ccc(NC(=O)CN2CCN(C(=O)C3CCCO3)CC2)cc1 (stereo not given)
27: O=C(CN1CCN(Cc2ccccc2F)C1=O)NCc1cccnc1
28: CC(=O)n1c(Cl)c(NC(=O)CCl)c2ccccc21
29: CC1CCCN(CC(O)COCc2ccc3c(c2)OCO3)C1 (stereo not given)
30: COC(=O)CSc1nnc(CNS(=O)(=O)c2ccc(C)cc2)n1C
entry no.,21,22,23,24,25,26,27,28,29,30
OX1R antag-1,-15,-18,-16,-5,-8,0,-9,-18,-10,-4
OX1R antag-2,15,16,21,20,14,18,6,12,1,10

Full records, quoted from the list. Screens in order: OX1R antag-1, OX1R antag-2
COc1ccc(-c2cn3cccnc3n2)cc1NC(=O)c1ccc(Br)o1 is entered as -18, 16
CC(NC(=O)C(=S)N1CCN(C)CC1)c1ccccc1 (stereo not given) is entered as 2, 12

Ordered by heavy-atom count (largest number first): part of the list above
21: COc1ccc2cc(OCC(=O)NNC(=O)Nc3ccc(OC)c(OC)c3)ccc2c1
22: COc1ccc(-c2cn3cccnc3n2)cc1NC(=O)c1ccc(Br)o1
27: O=C(CN1CCN(Cc2ccccc2F)C1=O)NCc1cccnc1
24: CCOC(=O)C1CCN(C(=O)c2ccco2)CC1
entry no.,21,22,27,24
OX1R antag-1,-15,-18,-9,-5
OX1R antag-2,15,16,6,20

The list goes on:
31: CC(=O)c1cccc(CN2CCC(CO)(Cc3ccccc3)CC2)c1
32: COc1ccc(C2CC(=O)OC3=C2C(=O)CC(C)(C)C3)c(OC)c1 (stereo not given)
33: Cc1ccc(C)c(S(=O)(=O)N2CCN(C(=O)c3cccnc3)CC2)c1
34: O=C(NN1C(=O)C2C(C1=O)C1C=CC2C12CC2)c1ccc(Cl)cc1 (stereo not given)
35: C/C(=N\S(=O)(=O)c1ccc(C)cc1)NC(=S)Nc1ccc(C)cc1
36: COc1cc(C(=O)N2CCN(C(=O)c3cccc4ccccc34)CC2)cc(OC)c1OC
37: Cc1cc(NS(=O)(=O)c2ccc(Nc3nc(-c4ccc(C)c(C)c4)cs3)cc2)no1
38: Cc1ccc(Cl)c(OCC(=O)NC2CCN(Cc3ccccc3)CC2)c1
39: O=C(NC1CC1)C1=C[C@@H](c2ccc(Br)cc2)C[C@@H](OCCCCO)O1
40: O=c1cc(O)n(-c2ccc(Cl)cc2)c(=S)[nH]1
entry no.,31,32,33,34,35,36,37,38,39,40
OX1R antag-1,-25,-12,-4,-11,-18,-22,6,-8,-29,-9
OX1R antag-2,4,11,-5,29,23,12,28,10,22,7

41: O=C(NC(CC1CCCCC1)C(=O)O)c1ccccc1 (stereo not given)
42: CC(=O)Nc1ccc(NC(=O)CC23CC4CC(CC(C4)C2)C3)cc1
43: CCOC(=O)c1c(C)n(C)c2ccc(OC)c([N+](=O)[O-])c12
44: COc1ccc(Cl)cc1S(=O)(=O)N1CCN(CC(=O)C(C)(C)C)CC1
45: CCC1Sc2ccc(S(=O)(=O)Nc3cc(OC)cc(OC)c3)cc2NC1=O (stereo not given)
46: Cc1ccc(C(=O)NC2CCN(S(=O)(=O)c3ccccc3F)CC2)cc1
47: CCC(C)NC(=O)Nc1ccccc1C (stereo not given)
48: CCOP(=O)(OCC)/C(=N/OC(=O)c1ccc(OC)cc1)C(N)=O
49: Cc1ccc(C(=O)NC2CCCC2)cc1S(=O)(=O)N1CCCCC1
50: COc1ccc(S(=O)(=O)N2Cc3ccccc3CC2C(=O)Nc2ccc3c(c2)OCO3)cc1 (stereo not given)
entry no.,41,42,43,44,45,46,47,48,49,50
OX1R antag-1,17,-19,-3,-39,-9,-28,-7,18,-12,-27
OX1R antag-2,3,18,8,13,-3,-5,18,7,5,13

51: CC(C)Cn1c(=O)c(-[n+]2ccccc2)c([O-])c2ccccc21
52: CCOC(=O)c1[nH]c2ccccc2c1NC(C)=O
53: Cc1ccc2nc(C)c(C)nc2c1N
54: CCOC(=O)Cn1c(=O)cnc2ccccc21
55: c1ccc(C(c2ccccc2)N2CCN(Cc3nc(-c4cnccn4)no3)CC2)cc1
56: Cc1cc(C)cc(N(CC(=O)NC2CCC(C)CC2)S(=O)(=O)c2c(C)noc2C)c1 (stereo not given)
57: Cc1ccc(C)c(NS(=O)(=O)c2ccc3[nH]c(=O)[nH]c3c2)c1
58: O=C1COc2ccc(S(=O)(=O)Nc3ccc(OC(F)(F)F)cc3)cc2N1
59: CS(=O)(=O)N1CCC(C(=O)NCc2ccc3c(c2)OCO3)CC1
60: O=C(CNc1ccc(C(F)(F)F)cc1[N+](=O)[O-])OCC(=O)c1ccccc1
entry no.,51,52,53,54,55,56,57,58,59,60
OX1R antag-1,2,-11,-30,-11,-21,-26,-9,-10,-3,1
OX1R antag-2,7,12,31,30,20,23,9,14,7,20

61: CC12CN(NC(=O)c3ccc(Cl)cc3)C3(C#N)CC1CCC23C (stereo not given)
62: COc1cc2c(cc1OC)-c1nncn1C(C)(C)C2
63: O=C(COC(=O)c1ccc[nH]c1=O)Nc1cc(S(=O)(=O)N2CCCCC2)ccc1Cl
64: OC(COc1ccc(OCC(O)CN2CCCCC2)cc1)CN1CCCCC1 (stereo not given)
65: COc1ccc(-c2nn(C)c(=O)c3ccccc23)cc1CNC(=O)C1CCCCC1
66: CCOc1ccc2cc(S(=O)(=O)N3CCOCC3)ccc2c1
67: Cc1nnc(NCCO)c2ccccc12
68: COc1ccc(CNC(=O)CNS(=O)(=O)c2cccs2)cc1
69: Cc1ccc(NC(=O)CCn2c(=O)oc3ccccc32)c(C)c1
70: CCOc1cc2[nH]c(=O)n(Cc3ccc(C(=O)NCCCN4CCCC4=O)cc3)c(=O)c2cc1OCC
entry no.,61,62,63,64,65,66,67,68,69,70
OX1R antag-1,-8,-30,-19,-10,-41,-5,-1,-10,-24,-11
OX1R antag-2,10,18,18,7,4,16,21,-5,25,9

71: COc1ccc(C(=O)N2CCN(c3ccccn3)CC2)cc1[N+](=O)[O-]
72: O=C(N/N=C/c1cccc(OCc2ccccc2)c1)c1cccs1
73: COCCCNc1nnc(Cc2ccccc2)c2ccccc12
74: COC(=O)c1c(NC(=O)CSc2nnc(CNc3ccc(Cl)cc3)o2)sc(C)c1C
75: CN(/C=C/c1c([N+](=O)[O-])c(=O)n(C)c(=O)n1C)c1ccccc1
76: NC(=S)N1CCCc2ccccc21
77: CCOC(=O)C(C)Sc1nc2c(c(=O)[nH]c(=O)n2C)n1Cc1ccc(Cl)cc1 (stereo not given)
78: OC(COc1ccc2ccccc2c1Br)Cn1cnc(-c2ccccc2)c1 (stereo not given)
79: CCC(C)NC(=O)c1ccccc1-c1ccccc1C(=O)NC(C)CC (stereo not given)
80: O=C(c1ccc2c(c1)OCO2)N1CCN(c2cccc(C(F)(F)F)c2)CC1
entry no.,71,72,73,74,75,76,77,78,79,80
OX1R antag-1,-18,-21,-19,-27,-23,-19,-46,-27,-18,-15
OX1R antag-2,8,15,10,4,7,5,2,43,3,5

81: COCCN(CCOC)S(=O)(=O)c1ccc(C(=O)Nc2nnc(COC)o2)cc1
82: CN1C(=O)[C@@H]2[C@H](C1=O)[C@@H]1C(=O)Nc3ccccc3C(=O)N1[C@@H]2c1ccc(F)cc1
83: O=C(NCc1nc2ncc(Br)cc2[nH]1)c1ccccc1
84: Cc1ccc(/C=N/NC(=O)c2ccc(Cn3cc([N+](=O)[O-])cn3)o2)cc1
85: OCC[C@@H]1C[C@@H](O)[C@H](O)[C@]2(CCCO2)O1
86: C=CCC1(C)C(=O)N(c2ccccc2)c2ccccc21 (stereo not given)
87: CC(NC(=O)[C@H](C)NC(=O)c1ccco1)c1ccc(S(N)(=O)=O)cc1 (stereo not given in full)
88: Cc1cccc(N2CCN(CC(=O)N(C)Cc3ccccc3)CC2C)c1 (stereo not given)
89: CC(c1ccccc1)n1cc(C(=O)NCc2ccncc2)nn1 (stereo not given)
90: CC(C)(C)N1CC(COc2ccccc2)OC1=O (stereo not given)
entry no.,81,82,83,84,85,86,87,88,89,90
OX1R antag-1,-4,-11,-1,-7,-19,-6,15,-11,-21,4
OX1R antag-2,11,23,23,18,7,39,9,2,6,15

91: CCOc1ccc(Cc2noc3c2C(=O)CCC3)cc1OCC
92: CCOC(=O)N1CCN(C(=O)Nc2cccc(Cl)c2)CC1
93: O=C(CN1C(=O)c2ccccc2S1(=O)=O)Nc1cccnc1
94: O=C(c1cnsn1)N1CCCC(Nc2ccc(F)c(F)c2)C1 (stereo not given)
entry no.,91,92,93,94
OX1R antag-1,-4,-1,6,1
OX1R antag-2,9,15,8,10

Fetched one by one from the list above, three records:
19: CC(/C=N/NC(=O)CSc1nc2ccccc2n1C)=C\c1ccco1
92: CCOC(=O)N1CCN(C(=O)Nc2cccc(Cl)c2)CC1
88: Cc1cccc(N2CCN(CC(=O)N(C)Cc3ccccc3)CC2C)c1 (stereo not given)
entry no.,19,92,88
OX1R antag-1,-26,-1,-11
OX1R antag-2,5,15,2

Screening results: PubChem, The Scripps Research Institute Molecular Screening Center
